From PubChem BioAssay
Sa helicase inh = S. aureus DNA helicase inhibition. purified S. aureus helicase, fluorescence unwinding assay; about half of the hits fall short of the stated cut. inhibition, %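 (tested at about 80 µM)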. 120,000 tested, 0.05% active. AID 485395;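 active means both duplicates at 50% or more, or one of them with a favoured structure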;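 further: 0% = mean of negative control wells and 100% = mean of positive control wells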
MgrA-DNA mod = alters Staphylococcus aureus MgrA binding to DNA | fluorescence polarization | inhibition, %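 (about 10 µg/mL by stock and volumes)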 | 84,000 tested, 0.13% active | AID 602314;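 active means above 50% in either of two replicates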;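 further: 0% = protein plus DNA without compound and 100% = DNA alone without protein; higher means less MgrA bound to DNA so lower polarization; one replicate is shown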
* marks the source's active call; other numbers are inactive results; x = not tested or not shown; & = joins results of further samples.

MgrA-DNA mod	Sa helicase inh	Molecule
x	5	COc1cc(C(=O)Oc2ccc(NC3=NS(=O)(=O)c4ccccc43)cc2)cc(OC)c1OC
8.9	7	C=CCn1cnc2c(c1=O)c1nc3ccccc3nc1n2-c1cccc(C)c1
-2.9	0	CCC(c1nc2ccccc2c(=O)n1-c1ccccn1)N1C(=O)c2ccccc2C1=O (configuration not stated)
0.0	x	N#C/C(=C\Nc1cc(C(F)(F)F)cc(C(F)(F)F)c1)S(=O)(=O)c1ccccc1
0.4	-6	CCOc1ccc(Nc2oc(COc3ccccc3Cl)nc2C#N)cc1
x	16	O=S(=O)(/C=C/c1ccccc1)N1CCCCC1
x	-89	N#CCC(=O)Nc1ccc(C(=O)OCC(=O)c2cc3ccccc3o2)cc1
x	5	Cc1cc2cc(CNC(=O)CC3CCCCC3)ccc2[nH]1
x	-2	CCN(CC(=O)Nc1ccc(NC(C)=O)cc1)CC(=O)Nc1ccc(S(=O)(=O)N(C)C)cc1
-0.6	x	COc1ccc(CC(=O)O/N=C(\N)c2ccccc2)cc1
x	-11	C(=N\N1CCOCC1)/c1nc(-c2ccccc2)n2ccccc12
0.8	9	CC(C)=N/N=C1\NC(=O)C(Cc2ccccc2)S1 (configuration not stated)
x	-1	CC(C)NS(=O)(=O)c1ccc2nc(NC(=O)c3cccnc3)sc2c1
x	10	CC1(C)CC(=O)c2cc3c(N)c(C(N)=O)sc3nc2C1
x	-23	NNC(=O)CNC(=O)c1ccco1
1.1	6	S=C(NCCCN1CCOCC1)N(Cc1ccccc1)Cc1ccccc1
2.2	1	COc1cccc(/C=N/NC(=O)c2ccccc2O)c1
x	8	CC(C)CNC(=O)c1cc(S(=O)(=O)N2CCCC2)c(Cl)cc1N1CCCC1
4.1	6	CC1CCC(Nc2nnnn2-c2ccccc2)CC1 (configuration not stated)
x	-24	Cc1ccc(C(=O)Nc2ccc(S(=O)(=O)N3CCCCC3c3cccnc3)cc2)cc1 (configuration not stated)
0.5	x	C=CCOC(=O)C1=C(C)N(C)C(=O)NC1c1cc2c(cc1Br)OCO2 (configuration not stated)
-1.2	x	FC(F)(F)c1cc(Br)c2ncc(-c3ccc(Br)cc3)nc2c1
x	8	CC1(C)C(c2ccccc2)=[N+]([O-])C2(CCCCC2=NNC(N)=O)N1O (configuration not stated)
1.8&4.6	x	O=C(CCCN1CCC(O)(c2ccc(Cl)cc2)CC1)c1ccc(F)cc1
x	-5	COc1cc(CN(C)Cc2cc(=O)n3ccsc3n2)ccc1OC(F)F
x	-15	COC(=O)c1c(NC(C)=O)c2c(C)c(C)sc2n1Cc1cccc(C)c1
-0.3	x	Cn1c(=O)c2c(nc(NCc3ccccc3)n2Cc2ccccc2Br)n(C)c1=O
x	2	Cc1cc(=O)oc2cc(OCC(O)CNC3CC3)ccc12 (configuration not stated)
1.1	x	O=c1[nH]c2cc3ccccc3cc2nc1-c1ccccc1NCc1ccc(F)cc1
0.0	19	COC(=O)C1=C(CN2CCCCC2)NC(=O)NC1c1ccccc1C (configuration not stated)
-0.9	x	O=C(CCN1CCOCC1)c1ccc(O)cc1
x	15	CCOc1cc(/C=N\NC(=O)OC)ccc1OC(=O)c1ccco1
-2.5	5	Cc1ccccc1Nc1nn2c(=O)c3ccc(C(=O)NCc4ccccc4Cl)cc3nc2s1
0.7	-12	Cc1c(C(=O)Nc2ccccn2)oc2ccccc12
-1.8	4	N#Cc1nc(-c2ccccc2)oc1N1CCCCC1
-2.9	8	CC(C(=O)NC1=NCCS1)(C(F)(F)F)C(F)(F)F
-2.0	14	CC1=C(C(N)=O)C(c2ccccc2)NC(=S)N1 (configuration not stated)
3.6	-13	C/C(=C\C(=Nc1ccc2c(c1)OCO2)c1ccccn1)c1ccccn1
x	-23	COC(=O)[C@@H](NC(=O)c1ccc(Cl)cc1Cl)C(C)C
-2.0	7	COc1cccc(OCCNC(=O)c2cccc3ccccc23)c1
-1.6	4	COc1ccc2c(c1)CCC/C2=N/NC(=O)c1ccoc1C
3.0	-21	CC(C)CCNC(=O)c1cc(-c2ccco2)nc2ccccc12
1.2	18	CS(=O)(=O)Nc1ccc(C(=O)NCc2ccccc2)cc1
x	-30	O=C(O)c1nc(Cl)c(Cl)c(Cl)c1Cl
0.1	x	Nc1ccccc1NC1=CC(=O)CC(c2c(F)cccc2Cl)C1 (configuration not stated)
x	8	Cc1ccc(C)c(N2CCN(C(=O)CN(C)S(=O)(=O)c3ccc4[nH]c(=O)oc4c3)CC2)c1
x	5	Cc1ccc(C2=N/C(=C\N3CCCCC3)C(=O)O2)cc1
x	-12	CC(=O)N1CCN(CC(=O)Nc2ccc(S(=O)(=O)N(C)C)cc2)CC1
1.2	-14	COc1cc2c3c(c1OC)C1(C=CC(=O)C=C1)CC3[N+](C)(C)CC2 (configuration not stated)
-1.2	6	COC(C(=O)NCc1ccc2c(c1)OCO2)c1ccccc1 (configuration not stated)

Next entries.
MgrA-DNA mod	Sa helicase inh	Molecule
8.7	x	CCOC(=O)c1ccc(N)c(N)c1
-3.5	-5	CC(C)(C)OC(=O)N1CC(O)CC1C(=O)N1CCOCC1 (configuration not stated)
0.4	x	CCN(CC)C(=S)Nc1cccc(SC)c1
x	-69	NC(C(=O)O)C(C(F)(F)F)C(F)(F)F (configuration not stated)
x	9&17	Cc1nnc(SCc2ccccc2)[nH]c1=O
x	4	c1ccc(OCCN2CCN(c3ccccc3)CC2)cc1
x	8	COC(CNC(=O)c1ccc(/C=C2\Oc3ccccc3NC2=O)cc1)OC
x	0	CN(Cc1ccccc1)c1nnc(NC(=O)NC2CCCC2)s1
x	-8	O=C(CN1CCN(S(=O)(=O)Cc2ccccc2)CC1)Nc1ccc2[nH]c(=O)[nH]c2c1
-2.6	-3	CCOc1ccc(OCc2ccc(C(=O)NN)o2)cc1
x	-4	CCCn1c(=O)n(C)c(=O)c2c(SCc3cccc(S(=O)(=O)N(C)C)c3)nc(C(C)C)nc21
-0.4	9	COc1ccc(N2C3=[N+](CCCC3)CC2(C)O)cc1 (configuration not stated)
1.1	x	CS(=O)(=O)N(Cc1ccccc1)Cc1ccc2c(c1)OCO2
-0.6	x	CC1CN(c2ccc([N+](=O)[O-])cc2)CC(C)O1 (configuration not stated)
1.2	0	CN1CC(C#N)=C(NC2CCCCC2)C1=O
2.6	0	CCC1C(C#N)=C(SC)NC2=C1C(=O)CC(C)(C)C2 (configuration not stated)
1.4	x	CN(C)c1ccc(/C=C(\C#N)S(=O)(=O)c2ccc(Cl)cc2)c(F)c1C#N
-3.1	x	COC(=O)c1cnc(N)nc1C(F)(F)F
x	24	C=CCN=c1scc(-c2ccco2)n1/N=C/C1=CCC2CC1C2(C)C (configuration not stated)
x	19	COC(=O)c1cccc2c1-c1ccccc1/C2=N/O
-0.2	3	Cc1ccc(S(=O)Cc2ccc(C(=O)N3CCN(C(=O)c4ccco4)CC3)o2)cc1 (configuration not stated)
x	-6	OC(Cn1cncn1)c1ccc(Br)cc1Br (configuration not stated)
-0.1	1	COc1ccc2oc(=O)c(-c3cnc(C)s3)cc2c1
-3.0	6	CCn1c(SCC(=O)N(C2CCCCC2)C2CCCCC2)nnc1C(C)C
0.1	x	Cn1c(=O)c2c(nc(SCc3ccccn3)n2C)n(C)c1=O

Ordered by length of the SMILES (high to low): some entries from above.
MgrA-DNA mod	Sa helicase inh	Molecule
x	-8	O=C(CN1CCN(S(=O)(=O)Cc2ccccc2)CC1)Nc1ccc2[nH]c(=O)[nH]c2c1
-0.2	3	Cc1ccc(S(=O)Cc2ccc(C(=O)N3CCN(C(=O)c4ccco4)CC3)o2)cc1 (configuration not stated)
x	24	C=CCN=c1scc(-c2ccco2)n1/N=C/C1=CCC2CC1C2(C)C (configuration not stated)
-3.0	6	CCn1c(SCC(=O)N(C2CCCCC2)C2CCCCC2)nnc1C(C)C
0.1	x	Cn1c(=O)c2c(nc(SCc3ccccn3)n2C)n(C)c1=O
2.6	0	CCC1C(C#N)=C(SC)NC2=C1C(=O)CC(C)(C)C2 (configuration not stated)
-0.6	x	CC1CN(c2ccc([N+](=O)[O-])cc2)CC(C)O1 (configuration not stated)
-0.4	9	COc1ccc(N2C3=[N+](CCCC3)CC2(C)O)cc1 (configuration not stated)
-0.1	1	COc1ccc2oc(=O)c(-c3cnc(C)s3)cc2c1
x	19	COC(=O)c1cccc2c1-c1ccccc1/C2=N/O
x	4	c1ccc(OCCN2CCN(c3ccccc3)CC2)cc1
x	-69	NC(C(=O)O)C(C(F)(F)F)C(F)(F)F (configuration not stated)
1.2	0	CN1CC(C#N)=C(NC2CCCCC2)C1=O
x	-6	OC(Cn1cncn1)c1ccc(Br)cc1Br (configuration not stated)
0.4	x	CCN(CC)C(=S)Nc1cccc(SC)c1

Next records.
MgrA-DNA mod	Sa helicase inh	Molecule
x	-13	CCc1ccccc1NC(=O)Nc1cc2sccc2n1CC
-1.6	-17	O=C(O)c1ccccc1-c1ccc(C(F)(F)F)cc1
2.2	x	N#Cc1c(F)cccc1N1CCCC1
19	x	BrCc1ccc(-c2noc(-c3ccncc3)n2)cc1
x	10	COc1ccc(C(=O)/C(C)=N/O)cc1
-5.5	23	CCn1c2ccccc2c2cc(CNCC(C)O)ccc21 (configuration not stated)
-0.9	x	NCCNC(=O)Cc1ccc(O)cc1
x	-10	Cc1ccc(S(=O)(=O)N2CCCCC2)cc1-n1c(C)cc(C2N=C(N)Nc3nc4ccccc4n32)c1C (configuration not stated)
x	-15	FC(F)(F)COc1ccc(-c2n[nH]c(=S)o2)cn1
-3.3	x	CCOC(=O)c1c(C)nn(-c2ccnc3cc(Cl)ccc23)c1C
-1.2	x	O=c1cc(O)c(-c2cccc(C(F)(F)F)c2)c(Cl)[nH]1
x	11	CCOC(=O)C1CCN(C(=O)Cc2ccc(C)cc2)CC1
1.1	-3	COc1ccc(-c2nnc3n(Cc4ccccc4)c(=O)c4ccccc4n23)cc1
-1.2	15	CNS(=O)(=O)c1cc2c3c(cccc3c1)C(=O)NC2=O
13	11	O=S1(=O)N=C(Nc2nncs2)c2ccccc21
x	21	CC(C)N1CNc2nc3ccccc3n2C1
6.4	3	CCOC(=O)CSC1=C(C#N)C(c2ccccc2Cl)C(C(=O)Nc2ccccc2OC)=C(C)N1 (configuration not stated)
x	13	CC1CCC(COC(=O)CN2CCCCC2)C(C)C1 (configuration not stated)
18	x	COc1cc(/C=C2\C(=O)NC(=O)N(c3ccc(C)cc3)C2=O)cc([N+](=O)[O-])c1O
1.8	-17	CCOc1cc(/C=C2/SC(=O)NC2=O)ccc1OCC(=O)O
5.8	-2	Cc1cc(C(=O)c2cccs2)c(N)s1
-0.4	x	Cc1ccc(S(=O)(=O)NC(=O)NNc2c(Cl)cc(Cl)cc2C(F)(F)F)cc1
x	6	COc1ccc(-c2onc(C)c2C)cc1S(=O)(=O)NC1CCN(Cc2ccccc2)CC1
x	-13	Nc1nc(COC(=O)c2ccc3ccccc3c2O)nc(Nc2ccccc2)n1
3.7	0	N#C/C(=C\c1ccc(-c2ccc(Br)cc2)o1)C(=O)OC1CCCCC1
x	0	Cc1ccc(N2CN=C(c3ccccc3)NC2=S)cc1
x	-19	Cn1cnc2c(=O)oc3ccc(S(=O)(=O)N4CCc5ccccc5C4)cc3c21
-1.2	-15	Cc1cc(C)n(C(C)n2nc(C)cc2C)n1
1.1	4	Cn1c(SCC(=O)c2ccc(F)cc2)nnc1C(O)c1ccccc1 (configuration not stated)
x	-7	CCCCC1CCC(C(=O)Nc2nonc2-c2ccc(OCC)cc2)CC1 (configuration not stated)
2.3	-10	COCCn1nnnc1CN(Cc1ccco1)Cc1cc2cc(OC)ccc2[nH]c1=O
1.3	-22	Cc1ccc(C)c(SCC(=O)OCC(=O)c2ccc(F)cc2)c1
1.0	7	CC(C)CC(=O)Nc1ccc2ccccc2c1
x	3	Cc1ccccc1-n1c(SCc2nnc(-c3cc4c(s3)CCCC4)o2)nnc1N1CCOCC1
x	-7	CCOc1cc(N2CCOCC2)c(OCC)cc1NC(=O)CN1c2ccccc2CC1C (configuration not stated)
-2.3	-9	O=C(Nc1ccccc1)OC1CCCCC1
0.4	15	CCN1C(=O)S/C(=C/c2cc(C)n(-c3ccc(S(N)(=O)=O)cc3)c2C)C1=O
-1.2	1	O=C(CN1CCN(Cc2ccccc2)C1=O)NCCc1ccccc1
x	-6	COc1ccc(C(=O)NCc2ccco2)c(OC)c1
x	-20	COc1ccc(N(Cc2cscn2)S(=O)(=O)c2cc(C)ccc2C)cc1
x	-5	CN(CCO)c1ccc(-c2nc(-c3ccccc3)c(-c3ccccc3)[nH]2)cc1
-1.2	18	c1ccc2nc3c(nc2c1)c1ccccc1n3CCN1CCOCC1
x	-8	Fc1ccc(-c2oncc2-c2nnnn2-c2ccc(Cl)cc2)c(F)c1
-2.4	-6	O=C(NC(NCCc1c[nH]c2ccccc12)(C(F)(F)F)C(F)(F)F)c1ccccc1
x	3	Cc1c2c(n3c(nc4ccccc43)c1C#N)N(c1ccccc1)CC2
x	12	Cc1ccc(-c2ccc(=O)n(Cc3cc(=O)n4ccccc4n3)n2)cc1
x	-7	Cc1ccc(S(=O)(=O)N2CCN(C(=O)CCN3C(=O)c4ccccc4C3=O)CC2)cc1

The list is partial; the hit share may differ from the screen's.
